Screening data as filed in PubChem.
IMPase inh: cell-permeable inhibitors of inositol monophosphatase (IMPase) | AID 901 | CHO-M1 cells, IP1 accumulation, HTRF TR-FRET ratio | inhibition (IP1 accumulation), % at 46.1 µM | 120,000 tested, under 10 active; active means well fitted curve in the direction sought with a large enough effect in the signal ratio, not every such curve was filed as active; inconclusive means small, poorly fitted or top-dose-only effect, or a change in a side signal; inactive means no such curve, though single readings can be large or run the other way; the % refers to the signal ratio;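 further: cells stimulated with carbachol in lithium chloride buffer; plate controls were DMSO basal wells for no effect and reference inhibitor wells for full effect; higher means more IMPase inhibition seen as more IP1 and lower FRET ratio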
Target sequence (P97697 whole entry, looked up): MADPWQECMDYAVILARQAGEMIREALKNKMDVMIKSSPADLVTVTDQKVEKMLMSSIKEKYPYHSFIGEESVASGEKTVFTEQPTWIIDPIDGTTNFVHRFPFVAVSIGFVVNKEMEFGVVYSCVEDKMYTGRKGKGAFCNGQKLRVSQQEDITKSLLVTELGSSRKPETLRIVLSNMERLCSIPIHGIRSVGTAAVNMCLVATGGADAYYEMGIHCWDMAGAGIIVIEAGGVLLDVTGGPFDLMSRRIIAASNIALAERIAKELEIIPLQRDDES
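Seeded CHO-M1 cells were dosed with compound at up to 46 uM, stimulated with carbachol for 30 min, then lysed in IP-One detection reagents. Higher IP1 lowers the TR-FRET signal.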
12-hLO inh: 12-hLO (ALOX12) enzyme inhibition; P18054; purified 12-hLO, xylenol orange hydroperoxide absorbance; Potency, µM (series often up to 57.1 µM), for inactives: at the highest dose activity change, negative = inhibition, most hits filed as inhibitors; hit rate 0.12% among 150,000; further: potency means the concentration at half of the fitted maximal effect; nearly all actives have a fitted effect of over 55% in size; many of its hits are not listed in these tables
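Lipoxygenase turnover measured by absorbance at 573 and 405 nm after Fe-XO development. Human 12hLO 150 nM, arachidonate 40 uM, pH 7.0 Hepes buffer with detergent; 15 min compound preincubation, 30 min reaction.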
ALOX15B inhib: inhibitors of human 15-lipoxygenase 2 (ALOX15B); Potency, µM (titrated, usually from 57.1 µM), for inactives: top-dose activity change, negative = inhibition, usual class: inhibitors; purified 15hLO-2, xylenol orange hydroperoxide absorbance; hit rate 0.56% among 110,000; further: potency means the concentration at half of the fitted maximal effect; nearly all actives have a fitted effect of over 60% in size; many of its hits are not listed in these tables
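Enzyme 50 nM, AA 45 uM, 25 mM Hepes pH 7.5 + 0.01% Triton X-100; cpd preinc 15 min RT, rxn 90 min RT; stop/detect with 200 uM XO + 300 uM Fe(II) in 50 mM H2SO4, 30 min; A573/A405.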
* hit, by the source's call; ? = inconclusive; nt = no result given; & = joins results of further samples; [ ] = remark or other dose. Unless noted, the call rests on the fitted dose curve; in most records, active means well fitted curve in the direction sought with a large enough effect; inconclusive means small, poorly fitted or top-dose-only effect, or another doubt; inactive means no such curve, though single readings can be large; an effect the other way counts as inactive or inconclusive. Unless noted, on the % scale 0 is the no-effect control and ±100 the full control effect. Only part of the results is shown, so the mix of outcomes need not match the whole.

SMILES | IMPase inh | 12-hLO inh | ALOX15B inhib
O=C(COC(=O)C1CCN(S(=O)(=O)c2cc([N+](=O)[O-])ccc2Cl)CC1)Nc1ncc(Cl)cc1Cl | 4 | -5% | 19%
Cn1cc([N+](=O)[O-])c(C(=O)Nc2ccc(Br)cn2)n1 | -4 | -1% | -7%
COc1ccc2c(c1)-c1nc(NC(=O)c3cccs3)sc1CC2 | 16 | -19% | 13%
COC(=O)C/C=C/[C@@H](C)[C@@H](/C=N/OC[C@@H](C)[C@H](OCc1ccccc1)C(C)C)NS(=O)(=O)c1ccc(C)cc1 | nt | -4% | nt
O=C(O)c1cc(NS(=O)(=O)c2cccc3ccccc23)ccc1O | 7 | -18% | -12%
CCCCNc1cc(C(=O)O)cc(S(N)(=O)=O)c1Oc1ccccc1 | -1 | -4% | -2%
CCCCCCCC(=O)NNC(=O)CCC(=O)O | 0 | 3% | -1%
CCOC(=O)c1cnc2cc3c(cn2c1=O)CCCC3 | -1 | 1% | ?
CCc1ccc2nc(Nc3nc(COC)cc(=O)[nH]3)nc(C)c2c1 | 3 | 1% | 9%
C[C@@H](C(=O)NCc1ccccc1)[C@H]1C[C@]1(C)[C@H](NC(=O)OCc1ccccc1)c1ccccc1 | nt | 2%&0% | 5%
CC[N+](C)(C)Cc1ccccc1Br | 15 | -2% | -9%
N#CC1=C(N)Oc2cc(Nc3ccccc3)ccc2C1c1ccncc1 (configuration not stated) | 3 | -4% | 52%[activator]
CCCCC[n+]1ccn(-c2nc3ccccc3nc2[N-]S(=O)(=O)c2ccc(C)cc2)c1 | -18 | -3% | -6%
CCc1ccc(-n2c(=O)c3c(C)c(C(=O)N(C)C)sc3n(CC(=O)NCc3ccco3)c2=O)cc1 | -1 | -5% | -28%

Sorted by molar mass (ascending): some entries from above
SMILES | IMPase inh | 12-hLO inh | ALOX15B inhib
CC[N+](C)(C)Cc1ccccc1Br | 15 | -2% | -9%
CCOC(=O)c1cnc2cc3c(cn2c1=O)CCCC3 | -1 | 1% | ?
CCc1ccc2nc(Nc3nc(COC)cc(=O)[nH]3)nc(C)c2c1 | 3 | 1% | 9%
Cn1cc([N+](=O)[O-])c(C(=O)Nc2ccc(Br)cn2)n1 | -4 | -1% | -7%
N#CC1=C(N)Oc2cc(Nc3ccccc3)ccc2C1c1ccncc1 (configuration not stated) | 3 | -4% | 52%[activator]
COc1ccc2c(c1)-c1nc(NC(=O)c3cccs3)sc1CC2 | 16 | -19% | 13%
CCCCC[n+]1ccn(-c2nc3ccccc3nc2[N-]S(=O)(=O)c2ccc(C)cc2)c1 | -18 | -3% | -6%
C[C@@H](C(=O)NCc1ccccc1)[C@H]1C[C@]1(C)[C@H](NC(=O)OCc1ccccc1)c1ccccc1 | nt | 2%&0% | 5%
CCc1ccc(-n2c(=O)c3c(C)c(C(=O)N(C)C)sc3n(CC(=O)NCc3ccco3)c2=O)cc1 | -1 | -5% | -28%
O=C(COC(=O)C1CCN(S(=O)(=O)c2cc([N+](=O)[O-])ccc2Cl)CC1)Nc1ncc(Cl)cc1Cl | 4 | -5% | 19%
COC(=O)C/C=C/[C@@H](C)[C@@H](/C=N/OC[C@@H](C)[C@H](OCc1ccccc1)C(C)C)NS(=O)(=O)c1ccc(C)cc1 | nt | -4% | nt
